NPYLR7 ag = agonists of mosquito NPYLR7 receptor, primary screen, cell-based, Aedes aegypti, calcium fluorescence, mosquito biting behavior; HEK293T NPYLR7/Galpha15, GCaMP6s calcium fluorescence; activation, % at 10 µM; 270,000 tested, 0.15% active; AID 1259423, 2018; in the data active means activation above about 40%;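 further: 0% = vehicle and 100% = reference agonist at the receptor; some compounds past the cut are filed as inactive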
NPYLR7 ag max-min = second read-out of NPYLR7 ag, no call of its own (marks repeat the call); activation, %; measured here: Max-Min RFU normalised activation; some inactives read as strong as hits;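 span of the calcium signal over five minutes; 0% = vehicle and 100% = native peptide agonist; compound fluorescence can raise it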
* = called active by the depositor.

SMILES	NPYLR7 ag	NPYLR7 ag max-min
COc1ccc(C(=O)N2CCC(C(O)c3cccs3)CC2)o1 (configuration not stated)	8	5
CS(=O)(=O)c1ccc(NS(=O)(=O)c2ccc(Cl)cc2)cc1	8	4
O=c1[nH]cnc2ccc([N+](=O)[O-])cc12	2	9
CSc1ccc(NC(=O)CC2(C(=O)O)CCCC2)cc1	6	11
O=C(c1ccccc1OC1CCN(C/C=C/c2ccc(F)cc2)CC1)N1CCCCC1	10	-3
O=c1[nH]c2ccccc2c(-c2ccccc2)c1Sc1nc2ccccc2o1	6	5
Cc1ccc(F)c(C(CC(=O)N2CCCC2)c2c[nH]c3ccc([N+](=O)[O-])cc23)c1 (configuration not stated)	2	-1
COc1ccccc1C1=NN(C(=O)C(C)C)C(c2ccc3nccnc3c2)C1 (configuration not stated)	3	5
COc1ccc(N2C(=O)CC(NCCc3ccc(S(N)(=O)=O)cc3)C2=O)cc1 (configuration not stated)	2	-2
Cc1ccc(C=CC2=CC(=C(C#N)C#N)CC(C)(C)C2)o1	-5	-7
CN(C)c1ccc(NC(=O)C2CCCC2)cc1CN(Cc1ccc(F)cc1)S(=O)(=O)c1cccc(Cl)c1	25	14
Cc1ccc2oc(NC3CCCC3C#N)nc2c1 (configuration not stated)	5	2
CC(C)c1cc(C(=O)N2CCN(C)CC2)nn1-c1nc2ccccc2s1	12	2
O=C(c1ccc(Cl)cc1)N(Cc1nccn1Cc1ccc(Cl)c(Cl)c1)CC1CC1	21	29
CCC(C(C)=O)c1ccc(Br)cc1C(=O)O (configuration not stated)	0	1
O=C(NCCn1nc(-c2cccs2)ccc1=O)c1ccccc1C(F)(F)F	6	4
CC(C)N(C)S(=O)(=O)c1ccc(Cl)c(C(=O)O)c1	6	3
CC(C)[C@H]1CC[C@H](C)C[C@@H]1OCC(=O)NCCCN1CCCC1=O	3	2
Cn1c(=O)n(Cc2ccc(F)cc2Cl)c2cnccc21	0	-2
O=C1CCCCCN1CC(=O)N(Cc1ccsc1)CC1CCCO1 (configuration not stated)	-1	-8
Cc1ccnc(CC(C)N(C)C(=O)c2ccc(N3CCN(C)CC3)cc2)c1 (configuration not stated)	18	4
Cc1nc(-c2cccc(F)c2)nc(N2CCN(C(=O)NC(C)(C)C)CC2)c1Cc1ccccc1	2	1
O=C(COc1ccccc1)Nc1c(-c2ccc(Cl)cc2)nc2ccccn12	-5	-3
O=C(CN(c1cccc([N+](=O)[O-])c1)S(=O)(=O)c1ccccc1)NCc1cccnc1	2	-1
O=C(COc1ccc(Oc2ccccn2)cc1)NC1CC1	3	0
COc1cc(-c2cccs2)cc2c1OCCN(CC(=O)Nc1cnn(C)c1)C2	7	2
CCS(=O)(=O)CC(=O)N1CCCC(n2nc(C)nc2C)C1 (configuration not stated)	4	4
Cn1ccsc1=NC(=S)NC1CC2CCC1C2 (configuration not stated)	3	0
CCCOCC1CCN(c2nc(-c3cccnc3)nc3c2cnn3C)C1 (configuration not stated)	19	13
CC(=O)Nc1ccnn1C1CCN(C(=O)CN2CCCC(c3ccccc3)C2)CC1 (configuration not stated)	-3	-5
Cc1ccc(F)c(S(=O)(=O)NC(=O)C2(C)CCN2C(=O)CC2CC2)c1 (configuration not stated)	2	-1
O=C(CSc1ncnc2c1cnn2-c1ccc(F)cc1)N1CCOCC1	28	19
CN1CCc2c(sc3[nH]c(=O)c4c(=S)nc(-c5ccco5)[nH]c4c23)C1	-6	-13
CCCCNC(=O)CN1CN(c2ccccc2)C2(CCN(C(=O)c3cc([N+](=O)[O-])cc([N+](=O)[O-])c3)CC2)C1=O	24	21
CCc1cc2c(SCC(=O)c3ccc(Cl)s3)ncnc2s1	4	2
COCCCN(CC(=O)N(CCc1c[nH]c2ccccc12)Cc1ccc(OC)c(OC)c1)C(=O)C12CC3CC(CC(C3)C1)C2	1	3
CC(=O)NC1CCCN(c2ccc3cccc(Br)c3n2)C1 (configuration not stated)	1	-3
Cc1nn(-c2ccccc2)c2nc(Cc3ccccc3)nc(N3CCCN(C(=O)Nc4cccc(Br)c4)CC3)c12	-6	-3
COc1ccccc1-n1c(=O)c2ccc(Cl)cc2n(C(C)C(=O)NCc2ccco2)c1=O (configuration not stated)	-2	13
Cc1oc(-c2cccc(C(F)(F)F)c2)nc1CC(=O)N1CCCN(Cc2cc(=O)c(OCc3ccc(C(C)(C)C)cc3)co2)CC1	3	5

Reformatted with two lines to a compound: part of the list above
Order of values: NPYLR7 ag, NPYLR7 ag max-min
- O=C(NCCn1nc(-c2cccs2)ccc1=O)c1ccccc1C(F)(F)F
  6, 4
- CC(C)N(C)S(=O)(=O)c1ccc(Cl)c(C(=O)O)c1
  6, 3
- CC(C)[C@H]1CC[C@H](C)C[C@@H]1OCC(=O)NCCCN1CCCC1=O
  3, 2
- Cn1c(=O)n(Cc2ccc(F)cc2Cl)c2cnccc21
  0, -2
- O=C1CCCCCN1CC(=O)N(Cc1ccsc1)CC1CCCO1 (configuration not stated)
  -1, -8
- Cc1ccnc(CC(C)N(C)C(=O)c2ccc(N3CCN(C)CC3)cc2)c1 (configuration not stated)
  18, 4
- Cc1nc(-c2cccc(F)c2)nc(N2CCN(C(=O)NC(C)(C)C)CC2)c1Cc1ccccc1
  2, 1
- O=C(COc1ccccc1)Nc1c(-c2ccc(Cl)cc2)nc2ccccn12
  -5, -3
- O=C(CN(c1cccc([N+](=O)[O-])c1)S(=O)(=O)c1ccccc1)NCc1cccnc1
  2, -1
- O=C(COc1ccc(Oc2ccccn2)cc1)NC1CC1
  3, 0
- COc1cc(-c2cccs2)cc2c1OCCN(CC(=O)Nc1cnn(C)c1)C2
  7, 2
- CCS(=O)(=O)CC(=O)N1CCCC(n2nc(C)nc2C)C1 (configuration not stated)
  4, 4
- Cn1ccsc1=NC(=S)NC1CC2CCC1C2 (configuration not stated)
  3, 0
- CCCOCC1CCN(c2nc(-c3cccnc3)nc3c2cnn3C)C1 (configuration not stated)
  19, 13
- CC(=O)Nc1ccnn1C1CCN(C(=O)CN2CCCC(c3ccccc3)C2)CC1 (configuration not stated)
  -3, -5
- Cc1ccc(F)c(S(=O)(=O)NC(=O)C2(C)CCN2C(=O)CC2CC2)c1 (configuration not stated)
  2, -1
- O=C(CSc1ncnc2c1cnn2-c1ccc(F)cc1)N1CCOCC1
  28, 19
- CN1CCc2c(sc3[nH]c(=O)c4c(=S)nc(-c5ccco5)[nH]c4c23)C1
  -6, -13
- CCCCNC(=O)CN1CN(c2ccccc2)C2(CCN(C(=O)c3cc([N+](=O)[O-])cc([N+](=O)[O-])c3)CC2)C1=O
  24, 21
- CCc1cc2c(SCC(=O)c3ccc(Cl)s3)ncnc2s1
  4, 2
- COCCCN(CC(=O)N(CCc1c[nH]c2ccccc12)Cc1ccc(OC)c(OC)c1)C(=O)C12CC3CC(CC(C3)C1)C2
  1, 3
- CC(=O)NC1CCCN(c2ccc3cccc(Br)c3n2)C1 (configuration not stated)
  1, -3

The main list resumes, starting 2 compounds before the break.
SMILES	NPYLR7 ag	NPYLR7 ag max-min
COc1ccccc1-n1c(=O)c2ccc(Cl)cc2n(C(C)C(=O)NCc2ccco2)c1=O (configuration not stated)	-2	13
Cc1oc(-c2cccc(C(F)(F)F)c2)nc1CC(=O)N1CCCN(Cc2cc(=O)c(OCc3ccc(C(C)(C)C)cc3)co2)CC1	3	5
CCCCN(C)c1ncnc(N)c1[N+](=O)[O-]	0	2
O=C(c1cc2n(n1)CCN(Cc1cccc(Cl)c1)C2=O)N1CCN(c2ccccc2Cl)CC1	-3	2
CC(C)CC(C)N(C(=O)CCC1CCCO1)c1ccc2[nH]ccc2c1 (configuration not stated)	4	2
COc1cc(Cl)c(C(=O)N2CCOC(c3ccccc3)C2)cc1OC (configuration not stated)	16	26
c1cc(-c2cc(C3CCN(Cc4ccc5c(c4)OCCO5)C3)ccn2)ccn1 (configuration not stated)	-2	-8
O=C1NC(c2ccc(SC(F)(F)F)cc2)Nc2ccccc21 (configuration not stated)	13	11
O=C(CC(c1ccccc1)c1ccc(Cl)cc1)N1CCCO1 (configuration not stated)	4	1
Cc1nc2ncnn2c(C)c1CCC(=O)Nc1sc2c(c1C(N)=O)CCC2	3	7
c1cc(C2CN(c3ncnc4c3CCC4)C2)ccn1	6	2
O=C(O)c1cccc(-n2[nH]c(-c3ccccc3)cc2=O)c1	-2	-3
COC(=O)/C=C/C(C)=C/C=C/C(C)=C/C=C/C=C(C)/C=C/C=C(C)/C=C/C(=O)O	-8	-12
O=C(c1ccccc1)c1ccc(N2CCN(C(=O)c3ccccc3)CC2)c(F)c1	-11	-14
CCn1c(CC2CCN(C(=O)C/C=C/c3ccccc3)CC2)nn(C)c1=O	21	8
O=C(NCC(O)COc1ccc(C(F)(F)F)cc1)c1ccccc1Cl (configuration not stated)	0	9
Cc1cc(CN2CCN3CCNC(=O)C3C2)c(C)n1-c1cccnc1 (configuration not stated)	3	1
CCOc1ccc(-c2nc(COC(=O)c3nnn(-c4ccc(C)c(F)c4)c3C)c(C)o2)cc1OC	-3	-11
CCOC(=O)C1(CCOc2ccccc2)CCN(Cc2ccon2)CC1	0	9
CN1C(=O)CC(C(=O)Nc2ccccc2F)SC1=Nc1ccc(I)cc1 (configuration not stated)	0	-1
CN(C(=O)c1ccn(C)n1)C(Cc1ccccc1)C1CCN(C(=O)/C=C/c2cccc(Cl)c2)CC1 (configuration not stated)	18	7
COc1cccc(-c2cc(C(=O)N3CCN(C/C=C/c4ccccc4)CC3)n(-c3cccc([N+](=O)[O-])c3)n2)c1	12	17
COc1ccc(CCN(C)C2CCCN(C(=O)c3cc(C(C)C)no3)C2)cc1OC (configuration not stated)	10	3
O=C(O)CSC12CC3CC(CC(C3)C1)C2	-5	-6
O=C(NCC1CCN(C2CC2)C1)c1cc(C2CC2)nc2ccccc12 (configuration not stated)	2	-1
Cc1ccc(C(=O)C(OC(=O)CN2C(=O)c3ccccc3C2=O)c2ccccc2)cc1 (configuration not stated)	-3	-6
CCOC(=O)C1(CC2CCCCO2)CCN(C(=O)CCc2c[nH]c3ccccc23)CC1 (configuration not stated)	8	6
CN1CCC(Cc2noc(-c3cccc(-n4cccn4)c3)n2)CC1	4	4
Cc1nn2c(=S)[nH]nc2[nH]c1=O	7	7
COc1ccccc1C(=O)Nc1c2c(nn1-c1ccccc1C)CS(=O)C2 (configuration not stated)	0	-1
Cc1cc(NC(=O)c2cccc(C(F)(F)F)c2)n(-c2nc(C)c(C)c(=O)[nH]2)n1	7	1
Cc1[nH]cnc1-c1c(-c2ccccc2)ncn1Cc1cc(-c2ccco2)on1	11	-2
CCOc1ccccc1N=Nc1c(C)[nH]n(-c2nc(-c3ccccc3)cs2)c1=O	-5	-6
Cc1c(CN2CCCN(C(=O)c3ccco3)CC2)[nH]c2ccc(F)cc12	8	4
Cc1cc(C2CCC2)nc(NCCN2CCCC(CO)C2)n1 (configuration not stated)	-10	-13
Nc1nonc1-c1ccc(Cl)cc1	10	10
COCCNc1oc2c(c1-c1ccc(C(=O)OC)cc1)c(=O)oc1c(C)cccc12	-5	-8
Cc1ccc(C(=O)N2C(C(=O)O)CSC2c2ccc(F)cc2)cc1 (configuration not stated)	6	0
CCc1cc(NC(C(N)=O)C(C)C)nc(-c2ccncc2)n1 (configuration not stated)	1	-3
CCCCc1ccc(-c2nc3cc(Cl)ccc3c(=O)o2)cc1	0	-2
O=C1NC2(CCN(C(=O)COc3ccccc3)CC2)Nc2ccc(Br)cc21	3	8
Cc1c(N(C)C)c(=O)n(-c2ccccc2)n1C	-5	-9
CCCCCc1ccc(C(=O)N2CCc3sccc3C2c2ccc(C)cc2)cc1 (configuration not stated)	8	9
CCSc1nnc2c(n1)OC1(CCCC1)Nc1ccc(Br)cc1-2	1	-3
CC(CN(C)Cc1ccc(-n2ccnc2)cc1)N1CCOCC1 (configuration not stated)	1	-5
O=c1cc(CSc2nnc(-c3ccc(F)cc3)o2)nc2sccn12	0	5
CCOc1cccc(C=NNc2ccccn2)c1O	6	4
Cc1cc2c(c(=O)n1C)C1(C(=O)N(Cc3ccc(Cl)cc3)c3ccccc31)C(C#N)C(=N)O2 (configuration not stated)	-1	-4
Cc1ccc2c(c1)CCN1C(=O)CN(C(=O)c3ccc(-c4cccc(C(F)(F)F)c4)s3)CC21 (configuration not stated)	43	36
CCC(=O)N1CCN(Cc2nc(C)cs2)CC1	-11	-15
O=C1N(Cc2ccccc2F)CCCC12CCN(c1nc3ccccc3o1)C2 (configuration not stated)	11	5
CCc1nc2ccc(C(=O)N3CCN(c4ccccc4)CC3)cn2c1N(C)Cc1ccc(N(C)C)cc1	12	-2
O=S(=O)(NCc1ccc(Cn2ccnc2)cc1)c1cccc(Cl)c1F	0	-3
COc1cccc(C2NC(=O)N(C)C3=C2C(=O)N(CC2CCCO2)C3)c1 (configuration not stated)	-3	5
O=C(NNC(=S)NC(=O)c1ccc(-c2ccc(Br)cc2)o1)c1ccncc1	5	11
CCCCN(C=O)c1c(CC)nc2ccc(C(=O)NCCN(C)C)cn12	4	-5
Cc1ccc(NC(=O)C(C)(C)c2ccccc2)c(C)c1	1	0
CCOC(=O)C1CCN(C(=O)c2cccc(CSc3nc(C)cc(N(C)Cc4ccccc4)n3)c2)CC1	7	9
Cc1cc([N+](=O)[O-])nn1CC(=O)Nc1sc2c(c1C#N)CCCCC2	-1	-5
CCC(C)Sc1nc2c(c(=O)n(C)c(=O)n2C)n1Cc1ccccc1 (configuration not stated)	-6	20
N#CCCCN1CCc2c([nH]c3ccccc23)C1c1cc(Cl)cc2c1OCO2 (configuration not stated)	-3	-7
CCOC(=O)C1=C(C)N=c2s/c(=C\c3cccs3)c(=O)n2C1c1ccc(N(C)C)cc1 (configuration not stated)	-2	-3
O=c1[nH]c(O)c(C=NCCCN2CCOCC2)c(=O)[nH]1	-8	-9
CN(C)CCN1C(=O)C(=O)C(=C(O)c2ccccc2)C1c1ccc(Cl)c(Cl)c1 (configuration not stated)	0	24

Only part of the results is shown; count on the stated rates, not on these rows.
